# GALR2 agonist: GALR2 receptor agonists, primary screen, cell-based | Galanin receptor type 2 (Homo sapiens), O43603 | GALR2-expressing cells, agonist activation read-out | activation, %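 (tested at 5 µM)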 | 140,000 compounds, 0.48% hits;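 active = above mean plus 3 SD of all compounds, about 5% in these data, not always enough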;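 note: 0% = vehicle buffer wells and 100% = reference agonist at full effect; tested in CHO reporter cells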
# RGS16-Gao: modulators of RGS16 binding to Galphao, primary screen, biochemical, human proteins, multiplexed bead flow cytometry | binding response (% of control), % at 10 µM | Regulator of G-protein signaling 16 (Homo sapiens) + Guanine nucleotide-binding protein … | 220,000 compounds, 0.38% hits | bead-based flow cytometry RGS16-Galphao binding, fluorescence; actives lie on both sides;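 active = below 25% or above 175%, edge rows of some plates excepted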;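 note: Galphao activated by GDP with aluminum fluoride before binding; 100% = wells without compound and 0% = beads without RGS; some results beyond the cut were filed as inactive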
# HSV augment: enhancers of HSV replication in host cells, fold increase, host cell viability; AID 1956, 2009; 220,000 compounds, 0.005% hits; HSV replication augmentation in cells; maximum fold increase;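 active = peak rise of 1.5-fold or more in the series; tested in PC3 cells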;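 note: first round at 10 µM; read as green reporter fluorescence; hits show the peak of a series up to 25 µM; 1 = signal of infected wells without compound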
# PKD1 inh: inhibitors of human PKD1 kinase, biochemical, fluorescence polarization | Serine/threonine-protein kinase D1 (Homo sapiens), Q15139 | PKD1 kinase fluorescence polarization assay | inhibition, %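 (about 10 µM by stock and volumes)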 | 200,000 compounds, 0.056% hits | AID 797, 2007;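 active = inhibition of 50% or more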;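 note: controls were vehicle for no effect and a reference inhibitor for full effect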
# Target sequence (Q15139 whole entry, looked up): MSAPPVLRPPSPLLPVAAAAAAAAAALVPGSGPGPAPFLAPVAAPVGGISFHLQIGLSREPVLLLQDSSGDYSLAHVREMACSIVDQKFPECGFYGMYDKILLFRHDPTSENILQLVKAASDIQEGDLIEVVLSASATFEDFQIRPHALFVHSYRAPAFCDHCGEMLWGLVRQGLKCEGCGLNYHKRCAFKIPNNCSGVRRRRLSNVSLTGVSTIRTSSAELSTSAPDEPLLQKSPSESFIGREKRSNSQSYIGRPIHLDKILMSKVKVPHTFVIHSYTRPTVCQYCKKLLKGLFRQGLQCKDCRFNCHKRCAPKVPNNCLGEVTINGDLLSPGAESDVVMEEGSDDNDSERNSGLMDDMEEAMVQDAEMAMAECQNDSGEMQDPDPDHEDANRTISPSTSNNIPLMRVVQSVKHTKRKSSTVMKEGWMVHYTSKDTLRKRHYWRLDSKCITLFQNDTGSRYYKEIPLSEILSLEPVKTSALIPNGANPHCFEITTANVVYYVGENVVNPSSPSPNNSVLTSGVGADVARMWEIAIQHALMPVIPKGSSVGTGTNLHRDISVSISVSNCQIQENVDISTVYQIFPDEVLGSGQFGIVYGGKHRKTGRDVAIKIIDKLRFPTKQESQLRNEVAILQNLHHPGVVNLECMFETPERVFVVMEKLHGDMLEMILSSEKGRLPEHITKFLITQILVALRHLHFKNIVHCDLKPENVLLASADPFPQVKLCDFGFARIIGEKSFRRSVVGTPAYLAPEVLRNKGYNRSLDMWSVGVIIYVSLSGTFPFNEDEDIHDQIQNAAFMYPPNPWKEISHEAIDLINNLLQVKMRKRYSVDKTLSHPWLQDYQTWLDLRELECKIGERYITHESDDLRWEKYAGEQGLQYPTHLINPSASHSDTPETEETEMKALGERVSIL
# Insulin prom inh: inhibitors of insulin promoter-driven GFP, primary screen, imaging, TRM-6 cells (human fetal islet line), eGFP reporter, cell count | inhibition, % at 2 µM | reporter expression induced with tamoxifen | 130,000 compounds, 0.9% hits | AID 1273, 2008;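 active = inhibition above the mean plus 3 SD, with well images judged a real hit on visual review, cut at about 60% in these data, passing the limit was not always enough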
# Insulin prom inh cell count: recorded beside Insulin prom inh, whose call it bears; normalized cell count, %; measured here: cell count, toxicity; reference of the scale not given here;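 cells exposed to compound for 48 h; stained nuclei by imaging scaled within each plate; lower means fewer cells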
# HSV augment primary fold: second read-out of HSV augment, no call of its own (marks repeat the call); fold increase; compound at 10 µM; measured here: primary screen fold increase 10 uM; tested in PC3 cells;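 GFP signal in the first replicate; 1 = infected wells without compound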
# * hit, by the source's call; i = inactive; · = no result given.
SMILES,GALR2 agonist,RGS16-Gao,HSV augment,HSV augment primary fold,PKD1 inh,Insulin prom inh,Insulin prom inh cell count
Cn1cccc1/C=N/NC(=O)CSc1nc2ccccc2[nH]1,·,102,i,1.4,·,·,·
CCc1ccccc1N(C(=O)c1cccs1)C1C=CS(=O)(=O)C1 (configuration not stated),0.1,101,i,1.1,-4,-50,105
COc1ccc2c(c1)CCc1c(C(=O)N3CCOCC3)noc1-2,-2.6,101,i,1.1,2,·,·
CCOc1ccc(N(CC(=O)Nc2ccccc2C(=O)N2CCOCC2)S(=O)(=O)c2ccc(F)cc2)cc1,-1.3,106,i,0.96,4,-3,151
Cc1ccc(NC(=O)COC(=O)CCc2nc3ccccc3n2-c2ccccc2)c(C)c1,-2.5,109,i,0.94,6,-31,101
Cc1ccc(C(c2nnnn2C(C)(C)C)N(Cc2ccco2)Cc2cccs2)cc1 (configuration not stated),-0.4,148,i,1,-8,·,·
Cc1cc(N2CCOCC2)nc2ccc(NC(=S)N3CCCCC3C)cc12 (configuration not stated),·,160,i,0.67,4,73*,44*
COc1ccc(Nc2nc(N3CCCC3)nc(N3CCCC3)n2)c(OC)c1,0.0,96,i,0.83,-8,-31,79
CC(C)c1ccc2c(c1)CCC1C(C)(CN)CCCC21C (configuration not stated),·,102,i,0.58,·,·,·
CCCn1c(NC(=O)c2ccccc2Br)nc2ccccc21,·,102,i,0.94,4,·,·
CC(=NCCCn1ccnc1)c1c(-c2ccccc2)[nH]n(-c2nc3ccccc3s2)c1=O,-2.9,102,i,1,-1,8,79
C=CCOn1c(=O)c(C)[n+]([O-])c2ccccc21,0.6,100,i,1.7,-10,-24,80
CCCN1C(=O)/C(=c2\sc3nc(=O)c(Cc4ccc(C)cc4)nn3c2=O)c2ccccc21,·,89,i,1,-5,20,167
Cc1cc(C2(c3ccc(O)c(C)c3)OC(=O)c3ccccc32)ccc1O,-1.8,101,i,1.1,-18,33,97
Cc1ccc(Nc2nc(-c3ccncc3)cs2)cc1,·,102,i,0.89,1,-11,80
COc1ccc(Nc2nc(N)c([N+](=O)[O-])c(NCc3ccccc3)n2)cc1,·,120,i,0.95,·,·,·
CC(=O)/C(C=Nc1noc(C)c1Br)=C(\C)O,·,110,i,1.1,·,·,·
CCOCCCNC(=S)N1CCCC(c2nc3ccc(C)cc3[nH]2)C1 (configuration not stated),·,100,i,1,-1,-60,98
C1CCN=C(Nc2nc3c(s2)CCCC3)CC1,-0.1,87,i,0.72,8,20,116
Cn1c(=O)c2c(ncn2CC(=O)N(Cc2ccccc2)c2ccccn2)n(C)c1=O,-0.9,111,i,1.2,-3,0,68
CC(C)(C)OC(=O)N1CCC[C@H]1c1nnc(SCc2ccc(Cl)cc2Cl)o1,-0.8,77,i,0.91,-10,·,·
CCC(=O)NC(=S)Nc1ccc(NC(=O)COc2ccccc2)cc1,-0.5,77,i,0.94,-4,·,·
Cc1cccc(CSc2nnc(-c3ccccn3)n2N)c1,-1.8,113,i,0.94,0,-29,120
COc1ccc(-n2c3c(c(=O)[nH]c2=O)C(NC(=O)c2ccncc2)(C(F)(F)F)C(=O)N3)cc1 (configuration not stated),·,101,i,0.93,4,10,100
CC(CCOC1=NS(=O)(=O)c2ccccc21)NC(=O)C(=O)Nc1ccccc1 (configuration not stated),·,42,i,0.96,·,·,·

# The list goes on (two carried over from the part before).
SMILES,GALR2 agonist,RGS16-Gao,HSV augment,HSV augment primary fold,PKD1 inh,Insulin prom inh,Insulin prom inh cell count
COc1ccc(-n2c3c(c(=O)[nH]c2=O)C(NC(=O)c2ccncc2)(C(F)(F)F)C(=O)N3)cc1 (configuration not stated),·,101,i,0.93,4,10,100
CC(CCOC1=NS(=O)(=O)c2ccccc21)NC(=O)C(=O)Nc1ccccc1 (configuration not stated),·,42,i,0.96,·,·,·
C/C(N)=C(/C#N)C(=O)COC(=O)c1cc(C)n(-c2ccc(F)cc2)c1C,-0.3,100,i,0.97,-7,67,45
COc1cc(NC(=S)N2CCN(C/C=C/c3ccccc3)CC2)cc(OC)c1,0.0,51,i,1.1,1,-6,58
COc1cccc(NC(=O)c2sc(NC(=O)c3ccncc3)nc2C)c1,·,108,i,0.91,·,·,·
Cc1ccc(NC(=O)CSCC#N)cc1Cl,-1.7,99,i,0.94,3,15,220
O=C(Nc1cccc2c1C(=O)NC2=O)c1cccc(N2C(=O)CCC2=O)c1,·,99,i,1.1,8,-5,117
CCc1ccc2[nH]c(=O)c(CN(CCN(C)C)C(=O)Nc3ccccc3)cc2c1,-1.6,103,i,0.86,1,4,159
Cc1cccc2cc(C#N)c(SCC(=O)Nc3ccccc3N3CCOCC3)nc12,-2.1,126,i,1,-4,-92,78
Clc1nc2ccccc2cc1/C=N/Nc1nc2ccccc2[nH]1,0.2,78,i,0.93,4,10,64
CS(=O)(=O)N1CCC(NC(=O)Cc2ccccc2)CC1,-4.9,103,i,0.95,-5,·,·
Nc1nnc(SCC(=O)NC2CCCc3ccccc32)s1 (configuration not stated),·,117,i,1,·,·,·
CCC1(CC)Cc2ccccc2-c2nc(CN3CCOCC3)[nH]c(=O)c21,0.4,227,i,1.1,4,·,·
Cc1ccc(-c2nc3ccccc3[nH]2)cc1NC(=O)c1sc2ccccc2c1Cl,-4.2,94,i,0.93,-5,-29,72
CCc1ccc(S(=O)(=O)NC(=S)NC2CCCCC2)cc1,·,98,i,0.96,-2,·,·
CCCC(=O)Nc1cc(C(=O)O)ccc1Sc1ccc(C)cc1,·,98,i,1,4,·,·
C=CCn1c(=O)c2c3c(sc2n2c(Nc4ccccc4)nnc12)CCCC3,0.2,102,i,1.1,-4,-9,109
S=C1N(c2ccccc2)C(c2ccc(Br)cc2)N2CCCN12 (configuration not stated),·,94,i,0.94,·,·,·
CCOc1ccc(/C=N/NC(=O)CSc2n[nH]c(=O)[nH]c2=O)cc1OC,·,117,i,1.1,2,-73,114
CN(C)/C=C(/C(=O)c1ccccc1)S(=O)(=O)c1ccc(Cl)cc1,·,86,i,0.98,-2,·,·
Cc1cccc(C)c1OCC(=O)OC/C(O)=C(\C#N)c1nc2ccccc2[nH]1,-0.3,93,i,0.89,1,·,·
CC1=CC(C)(C)N2C(=O)C3(C(C#N)=C(N)Oc4cc(C)oc(=O)c43)c3cccc1c32 (configuration not stated),-1.7,103,i,0.93,2,-25,123
CCS(=O)(=O)N1CCC(C(=O)NCCCN2CCCC2)CC1,-1.6,96,i,1,-32,25,67
COc1ccc(N2CCN(Cc3nc4c(c(=O)[nH]c(=O)n4C)n3CCCc3ccccc3)CC2)cc1,0.1,93,i,0.77,-5,12,89
CCCOc1c(Cl)cc(/C=N/O)cc1OCC,-1.8,97,i,1,-3,-393,27
COc1ccc(N2CCN(C(CNC(=O)C(=O)NCCCn3ccnc3)c3cccnc3)CC2)cc1 (configuration not stated),·,88,i,0.98,-2,-65,145
CN(CCc1ccccn1)C(=S)Nc1ccc(Cl)cc1Cl,·,102,i,0.95,7,·,·

# The last 4 compounds of the part above lead into the next.
SMILES,GALR2 agonist,RGS16-Gao,HSV augment,HSV augment primary fold,PKD1 inh,Insulin prom inh,Insulin prom inh cell count
COc1ccc(N2CCN(Cc3nc4c(c(=O)[nH]c(=O)n4C)n3CCCc3ccccc3)CC2)cc1,0.1,93,i,0.77,-5,12,89
CCCOc1c(Cl)cc(/C=N/O)cc1OCC,-1.8,97,i,1,-3,-393,27
COc1ccc(N2CCN(C(CNC(=O)C(=O)NCCCn3ccnc3)c3cccnc3)CC2)cc1 (configuration not stated),·,88,i,0.98,-2,-65,145
CN(CCc1ccccn1)C(=S)Nc1ccc(Cl)cc1Cl,·,102,i,0.95,7,·,·
COc1ccc(NC(=O)CCN2CCN(S(=O)(=O)c3cc(Cl)ccc3Cl)CC2)cc1,1.1,156,i,0.74,8,-38,68
CC(=O)CCc1c(C)[nH]c2ccccc2c1=O,-0.5,99,i,1,1,-28,113
COc1ccc(C2CC(c3ccccc3)=NN2C(=O)COC(=O)c2cc(S(=O)(=O)N3CCOCC3)ccc2Cl)cc1 (configuration not stated),0.1,99,i,0.96,-11,-17,71
COCCn1c(=NC(=O)/C=C/c2cccs2)sc2cc(NC(C)=O)ccc21,3.5,102,i,0.96,1,·,·
c1ccc(CCNC2=NCCCS2)cc1,-0.1,87,i,1.1,4,·,·
CCCCc1c(C)nc2ccccc2c1SCCC(=O)O,·,103,i,0.92,-3,-6,72
CCN(c1ccccc1)S(=O)(=O)c1cc(NC(=O)COC(=O)C2CC2)ccc1Cl,·,93,i,0.88,1,·,·
CN1CCN(CCOc2cccc(Cl)c2)CC1,-1.7,36,i,0.86,-24,21,38
C=CCn1c(SCn2nnc3ccccc3c2=O)nc2scc(-c3cccs3)c2c1=O,1.0,102,i,0.86,-4,·,·
Cn1ncc(Cl)c1C(=O)Nc1ccncc1,-1.4,32,i,1.1,-5,-6,160
CCCCC1S/C(=N/N=C/c2ccc(OC)cc2)N(Cc2ccc(OC)cc2)C1=O (configuration not stated),0.2,99,i,0.92,-9,5,148
CC(C)(C)OC(=O)N1CCC[C@H]1c1nnc(SCc2ccccc2F)o1,-2.5,119,i,1,-2,0,112
COc1ccc(OCCSc2nnc(-c3ccc(OC)cc3)n2N)cc1,-3.6,104,i,1,-4,41,114
CC(Oc1ccc(-c2ccccc2)c(F)c1)c1ccn(S(=O)(=O)c2ccc(Br)cc2)n1 (configuration not stated),-0.7,103,i,1,2,-17,96
Cn1c(=O)c2c(ncn2CC(=O)Nc2ccc(N3CCOCC3)cc2)n(C)c1=O,-1.3,101,i,0.99,0,-20,102
O=C(CCS(=O)(=O)c1ccccc1)Nc1nc(-c2cccs2)cs1,-3.5,·,i,0.7,-6,33,56
CN1C[C@@H]2C(c3ccccc3)C3(c4ccccc4)CC2(C3)[C@H]1c1ccccc1 (some centres not stated),·,106,i,1.1,·,·,·
Cc1cccc(S(=O)(=O)Nc2cccc3c2C(=O)c2ccccc2-3)c1,-1.1,99,4.1*,1.4*,11,25,81
CCc1nnc(NC(=O)CSc2nc(C)cc(C)c2C#N)s1,·,101,i,0.92,-5,14,86
Cc1c(N2C(=O)/C(=C3/C(=O)N(C)c4ccccc43)SC2=S)c(=O)n(-c2ccccc2)n1C,-6.0,96,i,0.89,-4,-37,107
COc1ccc(C(=O)Nc2ccccc2C(=O)N/N=C/c2ccccc2OC)cc1,-2.2,100,i,0.88,4,·,·
NCCOc1ccccc1OCCN,·,109,i,1.1,7,·,·
COc1cc(CN2CCCC(C(=O)c3ccccc3SC)C2)cc(OC)c1 (configuration not stated),·,104,i,0.89,-10,-5,74
Cc1ccc(/C=N/NC(=O)Cn2nc(C)c([N+](=O)[O-])c2C)o1,·,101,i,1.1,·,·,·
COC(=O)Cc1ccc(NC(=S)NCc2ccc(OC)cc2)cc1,·,102,i,0.95,-2,-6,61
SMILES,GALR2 agonist,RGS16-Gao,HSV augment,HSV augment primary fold,PKD1 inh,Insulin prom inh,Insulin prom inh cell count
CCc1ccc(OCc2nc(-c3ccccn3)no2)c(Br)c1,-1.2,103,i,0.74,-9,11,39
CC(=O)N(/N=C1\Sc2ccccc2C1=O)c1ccc(C)cc1C,-1.2,105,i,1.1,0,-18,102
COC(=O)CSc1nc2ccc(C)cc2cc1C#N,·,98,i,1.4,-4,23,68
CCOC(=O)c1ccc2c(c1)NCc1cccc(OC)c1O2,·,143,i,0.96,·,·,·
O=C(CSc1ccccn1)c1ccc(F)cc1,-1.3,92,i,1.1,-3,·,·
CC1=CC(C)(C)N(C(=O)c2ccccc2)c2ccccc21,-2.8,106,i,0.96,-5,18,101
CN(C)Cc1nc2ccccc2c(=O)n1Cc1nc(-c2cc3ccccc3o2)cs1,-2.2,95,i,0.94,0,·,·
Cn1cccc1C(=O)C(=O)Nc1ccc(Cl)cc1,-0.3,76,i,0.79,-4,-8,75
Cc1[nH]nc2c1C(c1ccsc1C)C(C#N)=C(N)O2 (configuration not stated),-4.7,101,i,0.9,-7,-6,146
Cc1nc2ccc(F)cc2cc1C(=O)Nc1cccc(Cl)c1C,-0.2,103,i,0.89,3,·,·
O=C(O)c1ccccc1C(=O)OCCCCOC(=O)c1ccccc1C(=O)O,-0.9,101,i,0.88,-15,-19,91
COc1ccc(CN2C(=O)c3ccccc3C2C(=O)NC2CCCC2)c(OC)c1 (configuration not stated),-1.5,102,i,1.1,4,·,·

# Two consecutive records from above:
SMILES,GALR2 agonist,RGS16-Gao,HSV augment,HSV augment primary fold,PKD1 inh,Insulin prom inh,Insulin prom inh cell count
CCc1ccc(OCc2nc(-c3ccccn3)no2)c(Br)c1,-1.2,103,i,0.74,-9,11,39
CC(=O)N(/N=C1\Sc2ccccc2C1=O)c1ccc(C)cc1C,-1.2,105,i,1.1,0,-18,102

# Assay outcomes from PubChem BioAssay.

# Hits appear at their usual frequency. About 1.3% of those tested had a hit in this group.
